Vaccinia Venus = inhibitors of vaccinia virus (Venus reporter); Vaccinia virus Venus reporter expression, fluorescence; Potency, µM (top dose mostly 36.5 µM), for the others: at the highest dose activity change, negative = inhibition, hits mostly inhibitors; 330,000 compounds, 0.46% hits; AID 720580; active means well fitted inhibition curve with a large enough effect; inconclusive means small, poorly fitted or top-dose-only effect; inactive means no such curve, though single readings can be large or run the other way; tested in A549 cells; further: nearly all actives have a fitted effect of over 30% in size; inactives centre near -10
Vaccinia mCherry = inhibitors of vaccinia virus infection (mCherry reporter signal); Potency, µM (series often up to 36.5 µM), inactives show at the highest dose activity change, negative = inhibition, most hits filed as inhibitors; AID 720579; Vaccinia virus mCherry reporter infection, fluorescence; about a quarter of the inactives have no number; 310,000 compounds, 0.63% hits; active = well fitted inhibition curve with a large enough effect; inconclusive = small, poorly fitted or top-dose-only effect; inactive = no such curve, though single readings can be large or run the other way; tested in A549 cells; further: nearly all actives have a fitted effect of over 35% in size; inactives centre near -10
* = called active by the depositor; i = inactive; ? = inconclusive; nt = no result given; & = joins results of further samples; [ ] = remark or other dose. On the % scale 0 is the no-effect control and ±100 the full control effect; potency means the concentration at half of the fitted maximal effect.

no. | SMILES | Vaccinia Venus | Vaccinia mCherry
1 | COc1cc(/C=C2\SC(=O)N(Cc3ccc(F)cc3)C2=O)cc([N+](=O)[O-])c1O | 1% | -3%
2 | Cc1ccc(NC(=O)c2ncoc2-c2ccco2)cc1Cl | -8% | -15%
3 | Cc1cc(C)cc(NC(=O)C/C(N)=N/O)c1 | -8% | -24%
4 | C=C1C(=O)O[C@@]23[C@H]1CC[C@@H](C)[C@@H]2CC[C@@]1(C)O[C@@H]31 | ? | ?
5 | Cc1cccc(/C=N/c2sc3c(c2C#N)CCN(Cc2ccccc2)C3)c1O | 5% | -10%
6 | O=C(Nc1ccc2nc(-c3ccccn3)c(-c3ccccn3)nc2c1)N1CCOCC1 | -14% | -1%
7 | Cc1cccc(C2N(c3nccs3)C(=O)C3CCCN32)c1 (configuration not stated) | -9% | -16%
8 | O=C(COC(=O)Cc1cn2ccsc2n1)Nc1nc2ccccc2s1 | -12% | i
9 | CCCc1cc(C(=O)NCCc2ccc(OC)c(OC)c2)no1 | -2% | -21%
10 | COc1ccc(C[C@H]2c3cc(O)c(OC)cc3CC[N+]2(C)[O-])cc1O (some centres not stated) | -3% | -10%

Quoted at random: 7 records from the list, in no set order.
no. | SMILES | Vaccinia Venus | Vaccinia mCherry
1 | COc1cc(/C=C2\SC(=O)N(Cc3ccc(F)cc3)C2=O)cc([N+](=O)[O-])c1O | 1% | -3%
8 | O=C(COC(=O)Cc1cn2ccsc2n1)Nc1nc2ccccc2s1 | -12% | i
3 | Cc1cc(C)cc(NC(=O)C/C(N)=N/O)c1 | -8% | -24%
6 | O=C(Nc1ccc2nc(-c3ccccn3)c(-c3ccccn3)nc2c1)N1CCOCC1 | -14% | -1%
9 | CCCc1cc(C(=O)NCCc2ccc(OC)c(OC)c2)no1 | -2% | -21%
10 | COc1ccc(C[C@H]2c3cc(O)c(OC)cc3CC[N+]2(C)[O-])cc1O (some centres not stated) | -3% | -10%
4 | C=C1C(=O)O[C@@]23[C@H]1CC[C@@H](C)[C@@H]2CC[C@@]1(C)O[C@@H]31 | ? | ?

Next results.
no. | SMILES | Vaccinia Venus | Vaccinia mCherry
11 | Cc1cn(-c2cc(C(=O)Nc3ccc(C)c(NC(=O)C(=O)c4c[nH]c5ccccc45)c3)cc(C(F)(F)F)c2)cn1 | ? | -14%&-24%
12 | C[C@H]1CN=C(N(C)C)N1CCc1ccccc1 | -2% | i
13 | CC(CNC(=O)C1CCN(C(=O)N2CCOc3ccc(Cl)cc32)CC1)c1ccccc1 (configuration not stated) | 1% | 7%
14 | COc1ccc(NC(=O)[C@@H]2CCCN2S(=O)(=O)c2cccc3cccnc23)cc1 | -2% | -20%
15 | CC1CN(CC(=O)NCc2ccccc2)CC(C)O1 (configuration not stated) | 3% | -20%
16 | CCOc1ccc(C(=O)C(C)OC(=O)c2cnc(C)cn2)cc1 (configuration not stated) | -2% | -11%
17 | O=C(c1cc2nc(-c3ccco3)cc(C(F)(F)F)n2n1)N1CCCc2ccccc21 | -19% | nt
18 | O=C1NC(Cc2ccc(O)cc2)c2nc3ccc(F)cc3c(=O)n2-c2ncccc21 (configuration not stated) | -16% | -11%
19 | CCCS(=O)(=O)c1ncc(Cl)c(C(=O)Nc2scc(-c3ccccc3)c2C(=O)OCC)n1 | ? | ?
20 | COc1ccc(OCC(=O)Nc2ccc3c(c2)nc(CCNC(C)=O)n3C)cc1 | -12% | i

Next section.
no. | SMILES | Vaccinia Venus | Vaccinia mCherry
21 | O=C(NCc1ccccc1)OC1CC2CC1[C@H]1CCCCN1C2=O (some centres not stated) | -1% | 23%
22 | CC(C)=C[C@H]1C[C@H](C)[C@H]2CC[C@H](C)c3c(O[C@@H]4OC[C@@H](O)[C@H](O)C4O)c(O)c(C)c1c32 (some centres not stated) | -25% | ?
23 | COc1ccc(-n2c(=S)[nH]c3cc(C(=O)O)ccc3c2=O)cc1 | -9% | -14%
24 | COc1cccc(CNCCO)c1OCc1ccccc1 | -9% | -6%
25 | CCc1ccc(NC(=O)CN2C(=O)C(c3ccc(Cl)cc3)=NC23CCCCC3)cc1 | -22% | -19%
26 | CN1CCC23c4ccccc4NC1C21CCN(C)C3Nc2ccccc21 | -13% | -7%
27 | CCCCc1cc(=O)oc2c(CN3CCN(C)CC3)c(O)ccc12 | -6% | i
28 | CN(CCCN1CCCCC1)C(=O)c1cc(COc2ccc(F)cc2F)on1 | -8% | i
29 | O=C(Oc1cccc(NC(=O)c2ccco2)c1)c1cccc(S(=O)(=O)N2CCCCC2)c1 | -13% | -10%
30 | CC(C)OC(=O)c1cc2c(ccn2C)n1CC(=O)N(Cc1ccccc1)c1ccc(F)cc1 | -19% | ?

Continuation:
no. | SMILES | Vaccinia Venus | Vaccinia mCherry
31 | O=[N+]([O-])c1ccc(/C=N/Nc2ncccc2[N+](=O)[O-])s1 | -17%[7.34 µM] | ?
32 | CSc1ncccc1C(=O)OCC(=O)Nc1cc(C(F)(F)F)ccc1N1CCOCC1 | -19% | -26%
33 | CCCNC(=O)C1(C)CCN(Cc2ccc(OC)c3ccccc23)C1 (configuration not stated) | -13% | 33%[activator]
34 | CC(OC(=O)Cc1n[nH]c(=O)c2ccccc12)C(=O)Nc1ccc(S(N)(=O)=O)cc1 (configuration not stated) | 1% | -7%
35 | CCOC(=O)C1=NNC2(c3ccc(C)cc3)C(=O)N(c3ccc(Cl)cc3)C(=O)C12 (configuration not stated) | -10% | -13%
36 | O=C(Cc1c(F)cccc1Cl)Nc1ccccc1C(=O)N1CCCCC1 | 2% | -10%
37 | O=C(Nc1ccnn1C1CCN(C/C=C/c2ccc(F)cc2)CC1)C1CCCC1 | -17% | -30%
38 | COc1cc(/C=N/NC(=O)c2ccncc2)ccc1OC(=O)c1cc(OC)c(OC)c(OC)c1 | 1% | -20%
39 | Cc1ccc(S(=O)(=O)C(C#N)c2nc3ccccc3nc2N2CCCC2)cc1 (configuration not stated) | 11% | -13%
40 | COc1ccc(C(C)=O)cc1CSc1nc(C)cc(C)n1 | -9% | i

The list continues:
no. | SMILES | Vaccinia Venus | Vaccinia mCherry
41 | COc1ccc(-c2nn(-c3ccccc3)cc2C(=O)N2CCOCC2)cc1 | -6% | -12%
42 | CCOCCCN(C(=O)Nc1ccc(Cl)cc1)C1CCN(C(C)=O)CC1 | -14% | -11%
43 | O=C(NCc1ccccn1)C(=O)NCC1OCCN1S(=O)(=O)c1ccc(Cl)cc1 (configuration not stated) | -7% | -11%
44 | CC(=O)c1cccc(-c2ccnc3c2CC(C(=O)Nc2cccc(NS(C)(=O)=O)c2)O3)c1 (configuration not stated) | -12% | 31%[activator]
45 | CCNC(=O)N1CCC(n2nccc2NC(=O)CCCc2ccccc2)CC1 | -6% | i
46 | CN1CCN(S(=O)(=O)c2ccc(NC(=O)COc3ccccc3)cc2)CC1 | -3% | i
47 | NS(=O)(=O)c1ccc(NC(=S)NC(=O)c2ccc3c(c2)OCO3)cc1 | -7% | -6%
48 | Cc1cc(Nc2ccc(C)c(C)c2)c2ccccc2n1 | -6% | ?
49 | Cc1c(NC(=O)c2ccccc2)cc(C(C)C)c(O)c1S(=O)(=O)c1ccc(Cl)cc1 | -12% | -14%
50 | CC1(C(=O)NS(=O)(=O)c2ccc3c(c2)CCO3)CCN1C(=O)COc1ccc(Cl)cc1 (configuration not stated) | -16% | -17%

(continued)
no. | SMILES | Vaccinia Venus | Vaccinia mCherry
51 | CCOC(=O)CSc1nc2ccc(NC(=O)c3ccccc3F)cc2s1 | 1% | -15%
52 | COC(=O)C1CCN(C(c2ccc(OC)c(OC)c2)c2sc3nc(C)nn3c2O)CC1 (configuration not stated) | -1% | i
53 | O=C(/C=C/c1ccccc1)Nc1cccc(C(=O)NCCCCc2ccccc2)c1 | 0% | -10%
54 | O=C(/C=N/O)Nc1ccccc1 | -18% | nt
55 | CCCC(=O)NC(c1ccccc1)c1ccc2cccnc2c1O (configuration not stated) | ? | ?
56 | Cc1ccc(N2C(=O)NC(NS(=O)(=O)c3ccc(C)cc3)(C(F)(F)F)C2=O)cc1 (configuration not stated) | -2% | 6%
57 | CCC1CCCCN1S(=O)(=O)c1ccc(NC(=O)c2cccnc2)cc1 (configuration not stated) | -28% | -20%
58 | Cc1ccc(C)c(NC(=O)CCc2ccc(S(=O)(=O)NC3CCCCC3)cc2)c1 | -24% | -22%
59 | Cc1ccc(C(=O)N/C(=C\c2ccccc2)C(=O)NCc2cccnc2)cc1 | -10% | i
60 | O=C(CCS(=O)(=O)c1ccccc1)N1CCN(c2cccc(C(F)(F)F)c2)CC1 | -13% | -8%

New compounds follow.
no. | SMILES | Vaccinia Venus | Vaccinia mCherry
61 | COc1ccccc1N1CCN(CC(O)COc2cc(C)cc(C)c2)CC1 (configuration not stated) | -12% | -7%
62 | COc1cc(OC)c(C2N(c3ccc(Cl)cc3)C(=O)C3CCCN32)cc1OC (configuration not stated) | -1% | -9%
63 | COc1ccccc1-c1ccnc(-n2ncc(C(=O)NCCc3cccnc3)c2C)n1 | 4% | -12%
64 | C=CCC[C@H](Cc1ccc(F)cc1)C(=O)OC[C@@H](NC(=O)[C@@H](CC=C)CC(=O)N(CCO)Cc1ccccc1)C(C)(C)C | 13µM* | ?
65 | CCN1C[C@@H]2[C@@H]3C(=O)N(C)C(=O)[C@@H]3[C@](C)(C1=O)N2C(=O)c1ccc(C(F)(F)F)cc1 | -5% | i
66 | Cc1occc1C(=O)NNS(=O)(=O)c1ccc([N+](=O)[O-])cc1 | -7% | 0%
67 | CC(=O)Nc1c(C(=O)Nc2ccccc2F)oc2ccccc12 | -13% | ?
68 | CCOc1ccc(C(=O)NC2CCN(C(=O)Nc3ccc(F)cc3)CC2)cc1 | -2% | 19%
69 | COC(=O)CNC(=O)CSc1nnc(C)c(=O)[nH]1 | -20% | -9%
70 | O=C(NCc1ccc2c(c1)OCO2)C1CCCN1S(=O)(=O)c1ccc(F)cc1 (configuration not stated) | -2% | i

Filtered by structure: the compounds so far with a cyano group (2)
no. | SMILES | Vaccinia Venus | Vaccinia mCherry
5 | Cc1cccc(/C=N/c2sc3c(c2C#N)CCN(Cc2ccccc2)C3)c1O | 5% | -10%
39 | Cc1ccc(S(=O)(=O)C(C#N)c2nc3ccccc3nc2N2CCCC2)cc1 (configuration not stated) | 11% | -13%

Some of these compounds in order of count of non-hydrogen atoms, descending.
no. | SMILES | Vaccinia Venus | Vaccinia mCherry
64 | C=CCC[C@H](Cc1ccc(F)cc1)C(=O)OC[C@@H](NC(=O)[C@@H](CC=C)CC(=O)N(CCO)Cc1ccccc1)C(C)(C)C | 13µM* | ?
63 | COc1ccccc1-c1ccnc(-n2ncc(C(=O)NCCc3cccnc3)c2C)n1 | 4% | -12%
65 | CCN1C[C@@H]2[C@@H]3C(=O)N(C)C(=O)[C@@H]3[C@](C)(C1=O)N2C(=O)c1ccc(C(F)(F)F)cc1 | -5% | i
62 | COc1cc(OC)c(C2N(c3ccc(Cl)cc3)C(=O)C3CCCN32)cc1OC (configuration not stated) | -1% | -9%
61 | COc1ccccc1N1CCN(CC(O)COc2cc(C)cc(C)c2)CC1 (configuration not stated) | -12% | -7%
67 | CC(=O)Nc1c(C(=O)Nc2ccccc2F)oc2ccccc12 | -13% | ?
69 | COC(=O)CNC(=O)CSc1nnc(C)c(=O)[nH]1 | -20% | -9%

(next part)
no. | SMILES | Vaccinia Venus | Vaccinia mCherry
71 | CCN(CC(=O)Nc1c(F)cccc1F)C(=O)/C=C/c1ccc(Br)s1 | -15% | -1%
72 | CN(C(=O)COC(=O)c1ccc2c(c1)OCO2)C1CCCCC1 | -7% | ?
73 | CC(C)CCN(Cc1ccco1)C(=O)c1cc2c(Cl)nc3ccccc3c2s1 | 1% | 2%
74 | Cn1cc(CN2CCC(C(=O)Nc3cccc(-c4cscn4)c3)CC2)cn1 | -7% | ?
75 | O=C1c2ccccc2C(=O)N1CCCc1c[nH]c2ccccc12 | -1% | -2%
76 | Cc1ccccc1C(=O)N1CCN(c2ccc(NC(=O)c3ccc4c(c3)OCCO4)cc2)CC1 | -24% | ?
77 | CCN(CC(=O)Nc1ccccc1C(F)(F)F)C(=O)c1cc(-c2ccccc2)nn1-c1ccccc1 | -15% | i
78 | CCCCCCCCCC(=O)OCC(CO)OC(=O)CCCCCCCCC (configuration not stated) | -8%[3.33 µM] | -11%[3.33 µM]
79 | CC1(c2nnc(-c3ccc(F)cc3)o2)CC(c2cccnc2)=NO1 (configuration not stated) | 3% | i
80 | O=[N+]([O-])c1cc(S(=O)(=O)N2CCOCC2)ccc1NS(=O)(=O)c1ccccc1 | -13% | i

Single records, from the list above. Order of screens: Vaccinia Venus, Vaccinia mCherry
Cc1ccccc1C(=O)N1CCN(c2ccc(NC(=O)c3ccc4c(c3)OCCO4)cc2)CC1 across the screens: -24%, ?
CCN(CC(=O)Nc1ccccc1C(F)(F)F)C(=O)c1cc(-c2ccccc2)nn1-c1ccccc1 across the screens: -15%, i

Additional results
no. | SMILES | Vaccinia Venus | Vaccinia mCherry
81 | Cc1cccnc1-n1c(-c2ccco2)nc2ccccc2c1=O | -8% | nt
82 | Cc1ccc(C(=O)NCC(=O)OCC(=O)NC2CCCC(C)C2C)s1 (configuration not stated) | -2% | 2%
83 | COC(=O)CSc1nc2ccc(N)cc2s1 | 7% | -2%
84 | CCN(c1ccccc1)S(=O)(=O)c1cccc(C(=O)NCC(c2ccc(F)cc2)N2CCOCC2)c1 (configuration not stated) | -17% | -17%
85 | COCc1nnc(NC(=O)c2ccc(S(=O)(=O)N(C)Cc3ccccc3)cc2)o1 | -8% | -10%
86 | CCSc1nnc(NC(=O)c2cnccn2)s1 | 1% | i
87 | Cc1c(Cl)cccc1NC(=O)C(CCS(C)(=O)=O)N1Cc2ccccc2C1=O (configuration not stated) | -10% | -12%

Bioassay records from PubChem.
